MT1-MMP act inh: blockers of MT1-MMP proenzyme processing, primary screen, HT1080 RFP-PRO-GFP cells, GFP/RFP fluorescence; GFP/RFP ratio fluorescence, overnight; percent of plate control window, DMSO zero; GFP/RFP ratio change, % at 20 µM; 360,000 compounds, 0.061% hits;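 active = GFP/RFP ratio change of at least 30% with cell ATP level not reduced by more than half and red fluorescence within 50% of control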; also: strong numbers were not always called active
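Assay system – RFP-PRO-GFP reporter HT1080 cells · Compound dosing – single dose of 20 µM compound, 1% DMSO final · Incubation – overnight compound exposure at 37 °C · Measure – GFP/RFP fluorescence ratio · Benchmarks – DMSO wells and RFP-L50D-GFP cells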
eIF4H inh: human eIF4H binding inhibitors, primary screen, translation initiation inhibitor project, biochemical, uHTS, fluorescence polarization; Eukaryotic translation initiation factor 4H (Homo sapiens), Q15056; eIF4H fluorescence polarization binding assay; inhibition, % at 35 µM; 290,000 compounds, 0.94% hits; AID 2012, 2009;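 active = 50% or more with normal probe brightness, or confirmed in later tests; inconclusive = above 50% with abnormal brightness, or retests that disagree; inactive = below 50% or failed in later tests; about a fifth of its hits are not listed in these tables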;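 also: calls also rest on retests at 20 µM and on dose response follow-up; 0% = protein and probe with vehicle and 100% = probe without protein; strong numbers were not always called active; many hits fall short of the cut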
Env fusion inh: inhibitors of HIV-1 Env-driven cell-cell fusion, primary screen, HeLa-JRFL effector, CEM21 target cells, luciferase. inhibition, % at 12.3 µM. 360,000 compounds, 1.1% hits. AID 651610, 2012;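 active = mean replicate inhibition score of at least 50 and every replicate individually at or above 50; inconclusive = only one of the two criteria met; inactive = mean below 50 and not all replicates reaching 50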;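 also: 0% = plate neutral controls and 100% = maraviroc near 300 nM; one replicate is shown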
PABP FP inh: PABP poly(A) RNA binding inhibitors, primary screen, biochemical, fluorescence polarization, uHTS | inhibition, % at 35 µM | 290,000 compounds, 1% hits;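 active = 50% or more with normal probe brightness, or confirmed in later tests; inconclusive = above 50% with abnormal brightness, or retests that disagree; inactive = below 50% or failed in later tests; about a fifth of its hits are not listed in these tables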;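 also: calls also rest on retests at 20 µM and on dose response follow-up; controls were probe without protein and protein plus probe with vehicle; some compounds called inactive have numbers as strong as hits; many hits fall short of the cut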
Rce1 inhib: yeast Rce1p protease inhibitors, primary screen, biochemical, fluorescence, cell-free homogeneous; yeast membranes, quenched prenylated peptide cleavage fluorescence; calls only; 290,000 compounds, 0.27% hits; AID 2563, 2010;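 active = fall in fluorescence gain of 50% or more versus controls, with final raw signal at or below 3038400; inconclusive = same 50% fall but final raw signal above 3038400; inactive = fall in fluorescence gain under 50%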;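 also: plate controls were neutral control wells for no effect and wells lacking membranes for full effect; tested at 10 µM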
Target sequence (Q03530 whole entry, looked up): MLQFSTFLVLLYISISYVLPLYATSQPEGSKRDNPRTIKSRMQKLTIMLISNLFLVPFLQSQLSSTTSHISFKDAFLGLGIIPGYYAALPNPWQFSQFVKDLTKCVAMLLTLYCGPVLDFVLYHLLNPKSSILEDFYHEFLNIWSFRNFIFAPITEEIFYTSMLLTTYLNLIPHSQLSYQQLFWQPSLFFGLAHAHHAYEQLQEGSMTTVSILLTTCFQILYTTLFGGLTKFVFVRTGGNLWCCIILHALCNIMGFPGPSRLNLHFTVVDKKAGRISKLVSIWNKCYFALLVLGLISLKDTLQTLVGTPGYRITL
UUG fidelity: modulators of yeast start codon fidelity, primary screen, whole organism, S. cerevisiae, single point, plate reader | S. cerevisiae UUG-firefly luciferase reporter, luminescence/redox ratio | activity score, % at 18.7 µM | 350,000 compounds, 0.13% hits;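 active = replicate mean at a twofold rise or more, about +100% in these data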;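 also: firefly luciferase made from a UUG start codon reports start codon fidelity; reporter light over untreated wells divided by growth signal over untreated wells; some hits fall short of that in this replicate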
CSC inhib: cancer stem cell viability inhibitors, primary screen, luminescence | cancer stem cell-like cells viability | inhibition, % at 7.5 µM | 300,000 compounds, 1.1% hits | AID 2717, 2010;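 active = mean at 75% or more and at least half the replicates too; inconclusive = mean and replicates disagree; tested in HMLE shEcad cells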;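 also: 0% = median of negative and 100% = median of positive control wells; the first replicate is given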
MT1-MMP act inh RFP: further read-out of MT1-MMP act inh, marked with its call; RFP signal change, %; measured here: RFP expression control read;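 0 = vehicle wells; hits needed this value within 50% of zero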
Active calls of the source: *; i = inactive; ? = inconclusive; . = no result given; & = joins results of further samples. Not a hit list; any-hit rate near 2.9%.

SMILES	MT1-MMP act inh	MT1-MMP act inh RFP	eIF4H inh	Env fusion inh	PABP FP inh	Rce1 inhib	UUG fidelity	CSC inhib
Cc1cc(N2C(=O)C(O)=C(C(=O)c3cccs3)C2c2cccc(O)c2)no1 (stereo unspecified)	1	6	-2	.	11	i	-4	5
CC(=O)CSc1nnc(NC(=O)CCc2ccccc2)s1	4	5	3	.	3	i	-5	-4
COc1cccc(C(O)c2nc(-c3cc4ccccc4o3)cs2)c1 (stereo unspecified)	-1	-5	.	1	.	.	-19	.
CSc1ccccc1NC(=O)CN(C)C(=O)CCc1c[nH]c2ccccc12	5	5	-3	3	-10	i	-15	-11
CCCCCCCC(=O)NC(Nc1ccc(S(N)(=O)=O)cc1)C(Cl)(Cl)Cl (stereo unspecified)	12	-3	2	-58	2	i	1	-9
Cc1[nH]n(-c2ccccc2)c(=O)c1C(C[N+](=O)[O-])c1ccc(F)cc1 (stereo unspecified)	1	0	-1	21	-1	i	.	-5
C=CCC[C@@H](Cc1ccc(F)cc1)C(=O)OC[C@@H](C)NC(=O)[C@@H](CC=C)CC(=O)N[C@H](CO)Cc1ccccc1	-4	-6	.	-6	.	.	0	.
CC1(C)Cc2cccc(OCC(=O)O)c2O1	1	2	-3	.	4	i	-20	-9
CCOC(=O)CSc1n[nH]c(=S)s1	4	4	1	-1	6	i	.	7
COc1ccc(CNC(=O)c2cccc(-c3ccc(C)c4ccccc34)n2)cc1	-2	1	-9	.	5	i	-15	52
COC(=O)c1cc(OC)c(OC)cc1N	0	2	-3	.	-6	i	-25	31
COc1ccc(C2C(C(C)=O)=C(O)C(=O)N2CCc2c[nH]c3ccccc23)cc1OC (stereo unspecified)	0	-3	4	-49	5	i	-15	-11
COc1ccc2c(c1)[C@H]1[C@H](CO2)[C@H](c2ccccc2)[C@]2(C)C(=O)Nc3cc(OC)c(OC)cc3C(=O)N12	-10	-3	.	102*	.	.	-12	-15
Cc1cc(/C=C2\SC(=Nc3ccc(F)cc3)NC2=O)c(C)n1-c1ccc(S(N)(=O)=O)cc1	-1	-9	-6	.	-10	i	-4	52
CN(CC(=O)Nc1ccc(N2CCOCC2)cc1)CC(=O)Nc1cccc(C#N)c1	.	.	-4	-4	9	i	.	-8
COc1ccc(C)cc1S(=O)(=O)N1CCCC(C(=O)NC2CC2)C1 (stereo unspecified)	2	4	2	.	-9	i	3	.
CCOC(=O)c1oc2ccccc2c1N	3	19	-1	-48	6	i	-18	-15
CN(C)CCNC(=O)c1[nH]c(C(F)(F)F)nc1-c1ccccc1	4	5	.	2	.	.	-11	.
CCOc1cccc(-c2nnc3sc(-c4cc(OC)c(OC)c(OC)c4)nn23)c1	-4	2	0	-19	-6	.	-5	6
COc1ccc(C(=O)Sc2ccc(Cl)cc2)cc1OC	-18	-16	-15	.	-9	i	-16	12

Some values from the entries so far:
MT1-MMP act inh, COc1ccc2c(c1)[C@H]1[C@H](CO2)[C@H](c2ccccc2)[C@]2(C)C(=O)Nc3cc(OC)c(OC)cc3C(=O)N12 reads -10
eIF4H inh, COC(=O)c1cc(OC)c(OC)cc1N reads -3

The list goes on.
SMILES	MT1-MMP act inh	MT1-MMP act inh RFP	eIF4H inh	Env fusion inh	PABP FP inh	Rce1 inhib	UUG fidelity	CSC inhib
O=C(N/C(=C\c1ccc(Br)cc1)C(=O)N1CCOCC1)c1ccco1	-2	2	1	17	1	i	-11	.
Cc1onc(-c2ccccc2)c1-c1n[nH]c(=S)n1-c1ccccc1Cl	3	2	-15	?	1	i	-13	-10
CCn1c(SCC(=O)Nc2ccc(Cl)cc2)nc2nc3c(cc2c1=O)CCCC3	-8	-13	-3	4	0	i	-14	-3
O=C(c1ccc(OC2CCN(C/C=C/c3ccc(F)cc3)CC2)cc1)N1CCCCC1	-5	-6	-13	25	-3	i	-10	-1
O=C(O)c1ccc(S(=O)(=O)N2CCCCCCC2)cc1	-1	4	.	-9	.	.	-11	.
CN(C(=O)c1ccc(-c2nn(C)c(=O)c3ccccc23)cc1)C1CCCCC1	1	-9	1	16	-6	i	-7	.
CCCCOc1ccc(C2OC34CCCCC3C(C#N)(C#N)C2(C#N)C(=N)O4)cc1 (stereo unspecified)	-33	44	?	.	?	i	-8	-1
CCC(C)Sc1ccc([C@@H]2[C@@H]3C(=O)N(CC)C(=O)[C@@H]3[C@]3(C(=O)OC)CCCCN23)cc1OC (stereo partly specified)	-5	-2	.	5	.	.	0	.
Cc1ccnc(SC2CC(=O)N(c3ccc([N+](=O)[O-])cc3)C2=O)n1 (stereo unspecified)	1	-1	-6	1	2	i	-8	0
O=C(COc1ccc(Br)cc1Br)NC(=S)Nc1cccc(CO)c1	3	5	0	-24	-6	i	.	0
Nc1ccc(C2=Nc3cccc4cccc(c34)N2)cc1	-5	-1	9	18	-18	i	5	.
CCn1cc(/C=C(\NC(=O)c2ccccc2F)C(=O)NCCCN2CCOCC2)c2ccccc21	-2	0	-16	-4	-8	i	.	11
CC(=O)NC(N1CCCCC1)C(F)(F)C(F)(F)C(F)(F)C(F)F (stereo unspecified)	14	3	-3	-72	1	i	2	-8
COc1ccc(Cl)cc1S(=O)(=O)N1CCC(C(=O)NCCC2=CCCCC2)CC1	-1	-1	-4	1	6	i	2	-8
Cc1ccc(CNC(=O)C2CCCN2S(=O)(=O)c2ccc3c(c2)C(C)(C)C(=O)N3C)cc1 (stereo unspecified)	1	1	-10	10	-6	i	-8	-9
COc1ccc(C2CC(C)=NN2C=O)cc1OC (stereo unspecified)	0	7	-6	53	-5	i	4	1
O=C(Nc1ccc(S(=O)(=O)Nc2cnc3ccccc3n2)cc1)c1cccc(OC(F)F)c1	3	-7	-6	11	11	i	-8	-3
CCOc1cccc(C(=O)Nc2nnc(-c3ccco3)s2)c1	3	1	45	.	8	.	4	3
CCOc1ccc(CCNC(=O)CCC(=O)N2CCOc3ccc(C)cc32)cc1OCC	-1	-1	-12	-15	-9	i	2	.
NC(=O)C1CCN(C2CC(=O)NC2=O)CC1 (stereo unspecified)	-3	-2	2	1	2	i	-5	3
COC(=O)Nc1nc(-c2ccccc2)c(C(=O)c2ccccc2)s1	14	0	-5	.	8	i	-11	-22
Cc1nn(-c2ccccc2)c(NC(=O)c2cccs2)c(-c2ccccc2)c1=O	1	4	-4	.	1	i	.	17
COc1cccc(/C=C2\Oc3cc(OCC(=O)N4CCCCC4)ccc3C2=O)c1OC	-5	-6	-15	4	-9	i	-3	5
CCOC(=O)C(=O)N/N=C/c1ccc(F)cc1	1	1	-12	-2	9	i	-10	-1
O=C1OCC2=C1C(c1ccccc1)CC(=O)N2c1ccccc1 (stereo unspecified)	3	-3	6	-4	2	i	.	5
COc1cccc(C(=O)OCC(=O)c2[nH]c(C)c(C(C)=O)c2C)c1	6	-2	.	.	.	.	-3	-6
Cc1cccc2cc(/C=N/NC(=O)CN3CCOCC3)c(Cl)nc12	0	-2	-2	.	-5	i	-22	9
C=C1CC2C(CCC3(C)C2CCC3(O)C(C)=O)C2(C)CCC(=O)C=C12 (stereo unspecified)	5	-7	11	-8	4	i	-11	6
CCn1c(=O)c2c(nc3n2CCCN3CCc2ccc(OC)c(OC)c2)n(C)c1=O	-3	-2	2	5	5	i	6	2
Cc1nonc1NC(=O)CSc1nc2ccccc2cc1C#N	-20	-9	39	-14	-14	i	.	-3
O=C(COC(=O)C12CC3CC(CC(C3)C1)C2)NCCc1ccccc1	1	0	-5	-12	2	i	.	.
COc1ccc(OC)c(NC(=O)CNC(=O)c2ccc([N+](=O)[O-])cc2)c1	-3	0	-2	-3	-5	i	.	-16
Cn1cc(Br)c(C(=O)n2cc(Br)cn2)n1	0	4	-3	6	3	i	.	6
COc1cc(OC)cc(C(=O)NNC(=S)Nc2ccc(S(N)(=O)=O)cc2)c1	-1	1	13	8	6	i	-21	-7
Cc1cc(C)cc(NC(=O)CSc2nc3c(oc4ccccc43)c(=O)n2-c2ccccc2)c1	-2	-5	-9	-49	-4	i	-2	6
O=C(CCc1nnc2ccc(N3CCC4(CC3)OCCO4)nn12)Nc1cc(F)ccc1F	-1	5	-11	1	13	i	-26	-17
Cc1ccccc1NC(=O)Cc1nnc(N)s1	1	0	4	-6	5	i	-22	-1
N#CC(c1ccncc1)(c1ncc(C(F)(F)F)cc1Cl)N1CCOCC1 (stereo unspecified)	0	-1	3	7	1	i	11	-10
CCOc1ccc(Cn2c(=O)sc3ccccc32)cc1OC	-1	-22	4	13	13	i	10	8
CC(=O)c1c(O)c2ccccc2n(C(C)C)c1=O	-3	0	5	-3	-1	i	-9	.

In the list so far, these contain bromine:
SMILES	MT1-MMP act inh	MT1-MMP act inh RFP	eIF4H inh	Env fusion inh	PABP FP inh	Rce1 inhib	UUG fidelity	CSC inhib
O=C(N/C(=C\c1ccc(Br)cc1)C(=O)N1CCOCC1)c1ccco1	-2	2	1	17	1	i	-11	.
O=C(COc1ccc(Br)cc1Br)NC(=S)Nc1cccc(CO)c1	3	5	0	-24	-6	i	.	0
Cn1cc(Br)c(C(=O)n2cc(Br)cn2)n1	0	4	-3	6	3	i	.	6

Next part.
SMILES	MT1-MMP act inh	MT1-MMP act inh RFP	eIF4H inh	Env fusion inh	PABP FP inh	Rce1 inhib	UUG fidelity	CSC inhib
O=C(Cn1c(C(=O)OCCO)cc2ccccc21)c1ccccc1	.	.	-4	13	0	i	-11	-1
CCOc1ccc(C(=O)NCC(=O)NCC2CCCCC2)cc1OCC	4	5	-4	5	-5	i	-4	-9
C[C@H](CO)N1C[C@H](C)[C@@H](CN(C)Cc2ccc(-c3ccccc3)cc2)Oc2c(NC(=O)c3ccncc3)cccc2C1=O	3	-10	.	-3	.	.	14&-10	11
O=C(N/N=C/c1ccco1)c1cccc(N2Cc3ccccc3C2)c1	-4	7	91*	7	53*	i	-6	-7
CC(=O)N(Cc1nc2sc(C)c(C)c2c(=O)[nH]1)C1CCCC1	2	-7	-6	31	-6	i	.	-7
CCN(CC)C(=O)CSc1nnc(COc2cccc(C)c2)n1C	.	.	2	.	-2	i	.	9
Cn1c(=O)c2c(ncn2CC(=O)Nc2ccccc2N2CCOCC2)n(C)c1=O	2	10	3	.	37	i	-11	-9
CCCCc1cc(=O)oc2cc(OS(C)(=O)=O)ccc12	8	-7	-3	-430	-8	i	3	-11
COc1ccc([C@H]2CC(=O)C=C(c3cccc4c3Oc3ccccc3S4)C2)cc1	0	-10	.	7	.	.	-23	32
O=C(NCCNC(=O)c1ccc(-c2ccc(Cl)c(Cl)c2)o1)c1cnccn1	4	1	.	-12	.	i	15	1
COc1ccc(N2CCN(C(=O)CCC(=O)N3CCOc4ccc(C)cc43)CC2)cc1	4	-5	-9	.	-4	i	-5	-13
O=C(Cc1ccccc1F)Nc1ccccc1-c1ccccc1	4	0	-4	-10	3	i	.	22
CCOc1ccccc1N(CC(=O)Nc1cccnc1)S(C)(=O)=O	4	1	-8	11	-8	i	-12	-10
C/C(COc1ccccc1)=N\NC(=O)c1nnn(-c2nonc2N)c1CSc1ccc(C)cc1	1	6	.	16	.	.	2	.
O=C(CCCN1C(=O)c2cccnc2C1=O)Nc1ccc(F)cc1Cl	-2	-3	8	0	-2	i	2	-9
COc1ccccc1NC(=O)c1ccc2nc(C)c(C)nc2c1	1	4	2	-1	6	i	-24	-2
Cc1onc(-c2ccccc2Cl)c1C(=O)NC(=S)Nc1ccc(C(C)(C)C)cc1	-10	-10	-2	14	-4	i	.	45
COc1cc(NC(=O)c2ccc(Cl)cc2Cl)ccc1NC(=O)c1cccs1	6	6	-2	-97	11	i	-10	4

Source: PubChem
